# Screening data: PubChem, several laboratories
# Sa RN4220 lethal – kills Staphylococcus aureus RN4220 | S. aureus RN4220 growth, OD600, 16 h | inhibition, % (no concentration beside the values) | AID 1259311 | hit rate 0.33% among 330,000;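 active means z-score of -3 or lower and OD600 up to 0.18 on both plates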;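 further: plate controls were untreated cells for no effect and reference antibiotic for full effect; stock transfer was 100 nL into about 80 µL; one replicate is shown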
# ugtP null kill – compounds lethal to S. aureus RN4220 ugtP deletion mutant; growth inhibition, % (no concentration beside the values); AID 1259309; OD600 growth, 16 h; some inactives read as strong as hits; hit rate 0.54% among 330,000;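 active means z-score under -3 and OD600 up to 0.15 on both plates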;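 further: plate controls were untreated wells for no effect and antibiotic for full effect; wells of about 80 µL received 100 nL stock; the first replicate is given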
# Mtb hypoxia inh – inhibitors of hypoxia-regulated fluorescent reporter in Mycobacterium tuberculosis. hit rate 0.1% among 300,000. M. tuberculosis hypoxia-regulated fluorescent reporter, fluorescence. AID 1159583. fluorescence inhibition, % (no concentration beside the values);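 active means 35 to 45% if threefold the growth effect, above 45% if 1.5-fold the growth effect; inactive means the rest, general growth blockers included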;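 further: wells of about 50 µL received 100 nL stock; 0% = vehicle wells and 100% = reference inhibitor wells; whole bacteria with a GFP reporter of the hypoxia response; strong numbers were not always called active; many hits fall short of the cut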
# PrP 5UTR inh – suppresses PrP 5' UTR mRNA reporter expression; hit rate 0.35% among 340,000; AID 488862; inhibition, % (no concentration beside the values); cell-based PrP 5' UTR mRNA reporter, plate reader;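 active means every replicate at 50% or more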;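 further: 0 = median of the neutral control wells; tested in H4 reporter cells; numbers are from one replicate; inactives centre near -14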
# Autofluor counter – flagged as autofluorescent in microsphere protease counterscreen | hit rate 3.1% among 360,000 | fluorescence intensity (no concentration beside the values) | compound autofluorescence counterscreen, microsphere flow cytometry; active compounds read high | AID 624483;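 active means at least 3 SD above the mean of all compounds, about 16000 in these data; inconclusive means too few beads counted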;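 further: 100 nL of 1 mM stock went into each well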
# BJeLR viability – BJeLR cell viability loss. BJeLR (HRASV12) viability, CellTiter-Glo ATP luminescence, 48 h; reference of the scale not given here. hit rate 0.17% among 300,000. inhibition, % (no concentration beside the values);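 active means replicate mean above 50%; inconclusive means above 50% but judged a plate artefact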;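 further: 50 nL library stock added to about 25 µL; numbers are from one replicate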
# Mtb hypoxia inh growth – second read-out of Mtb hypoxia inh, no call of its own (marks repeat the call); growth inhibition, %; measured here: M. tuberculosis growth (absorbance);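 0% = vehicle and 100% = reference antibiotic; read after six days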
# The depositor's hits bear a star; ? = inconclusive; . = not tested or not shown; & = joins results of further samples.
SMILES,Sa RN4220 lethal,ugtP null kill,Mtb hypoxia inh,Mtb hypoxia inh growth,PrP 5UTR inh,Autofluor counter,BJeLR viability
Cc1ccc(Nc2nc(C(=O)N3CCC(C(=O)NCc4ccccc4)CC3)cs2)cc1,3.5,5,-14,-8,-21,3959,-8
COCc1cc(C)nc(OCC(=O)N/N=C\c2cc(C)n(-c3cccc(C(F)(F)F)c3)c2C)c1C#N,.,.,.,.,-14,2885,-4
Cn1cnc(S(=O)(=O)N2CCN(c3cccc(Cl)c3)CC2)c1,0.1,1,8,1,-5,3750,-7
COc1ccc(NC(=O)Nc2ccc3nc(C)c(C)nc3c2)cc1,-0.4,3,.,.,6,4504,-3
CCCCCCNc1cc2n(c(=O)n1)CCc1cc(OC)c(OC)cc1-2,4.5,6,-3,7,-32,11317,.
CCCCNC(=O)c1cc2cc(OC)ccc2[nH]1,2.4,-17,8,1,.,3168,-9
CN(C)S(=O)(=O)c1ccc(NC(=O)CN2CCCCCC2)cc1,1.7,11,7,8,-18,5105,3
O=C(Cc1ccccc1)NC(NC(=O)Cc1ccccc1)c1cccc([N+](=O)[O-])c1,0.0,2,7,0,-22,2475,-3
C/C(=N\NS(=O)(=O)c1ccccc1)c1ccc2c(c1)OCCO2,.,.,.,.,-8,2210,-5
O=C(O)C1CC(=O)N(Cc2ccc3c(c2)OCO3)C1 (stereo not drawn),-5.0,-1,-7,-8,-36,7894,-8
Cn1nnnc1SCC(=O)C(C)(C)C,2.2,8,8,0,-12,4439,2
Cc1ccc(NC2=C(Cl)C(=O)OC2OC(=O)c2ccco2)cc1 (stereo not drawn),2.1,0,19,6,-11,11098,-14
C/C(=N\OCc1nc2ccccc2c(=O)n1/N=C/c1cc([N+](=O)[O-])ccc1O)c1ccccc1,.,.,.,.,-41,3951,-5
CC(C)CCNC(=O)C1CCN(C(=O)N(C)C)CC1,2.9,1,6,20,-13,8867,0
COc1ccc(O)c(C=NNC(=O)CCC(=O)Nc2ccc(C)cc2)c1,0.8,5,16,-2,.,.,.
COc1cc(C=NNc2nc3ccccc3[nH]2)cc(OC)c1O,4.8,3,6,4,.,.,.
Cc1cc(C)cc(NC(=O)Cc2ccc(S(=O)(=O)N3CCCC3)s2)c1,1.7,-8,-3,-4,-5,3059,.
Cc1c(C(=O)N2CCCC2)sc(NC(=O)c2ccc(Cl)cc2)c1C#N,14,-2,-2,-1,-8,2563,4
COc1cc(/C=C/C(=O)N2CCN(c3n[nH]c(=O)[nH]c3=O)CC2)cc(OC)c1OC,3.3,1,5,-10,-8,3175,1
CCOC(=O)[C@]12Cc3cc(N(C)C)ccc3C1N(Cc1ccccc1)C(=O)c1ccccc12 (stereo partly drawn),2.2,8,-5,-3,.,.,.
C=C(C)c1sc(-c2ccc(Cl)cc2)nc1C,.,.,.,.,-42,4151,-3
CC(C)(C)c1ccc(C(=O)C2CCCN(C(=O)CCn3cncn3)C2)cc1 (stereo not drawn),4.1,8,8,-2,-23,5522,-3
CC12CCC(c3c1nc1ccccc1[n+]3[O-])C2(C)C (stereo not drawn),5.4,13,12,5,-6,2258,6
CCc1ccc(OCC(=O)OC(C)C(=O)NC2CC2)cc1 (stereo not drawn),4.4,13,3,-2,7,?,7
COC(=O)CS(=O)(=O)c1cccc2cccnc12,-6.4,-8,-12,1,-24,2529,5
CCC(C(=O)OC)n1c(-c2ccccc2)nc2ccccc2c1=O (stereo not drawn),-1.7,28,12,6,-6,3328,-7
Cc1ccccc1CS(=O)(=O)Cc1ccc(C(=O)NC2CCCC2)o1,-0.2,12,5,-8,-8,3690,3
N#CC1C(=O)NC(c2ccccc2)=CC1c1ccccc1 (stereo not drawn),13,-1,21,11,-5,3188,.
CC(=O)Nc1ccc(C=NNC(=O)C2CC2)cc1,2.3,0,13,14,-16,4214,.
O=C(CSc1nncn1-c1ccccc1)Nc1ccccc1F,5.4,7,-6,-7,-8,3994,7
COc1ccc(NC(=O)CON=C2CCCc3nonc32)cc1,2.4,-1,7,3,.,.,.
CCN(CC)C(=O)CCCC(=O)N(CC)CC,3.0,0,15,-4,-3,2224,-7
S=C(Nc1ccc2c(c1)OCO2)N1CCN(Cc2ccco2)CC1,3.0,8,11,9,-17,3193,6
c1ccc(C(c2nnnn2C2CCCC2)N2CCN(c3ccccc3)CC2)cc1 (stereo not drawn),-2.6,8,.,.,-18,3020,-5
Cc1ccc(-n2c(N)c(C#N)c(-c3ccc(Cl)cc3)c(C#N)c2=O)cc1,7.7,0,.,.,-3,5889,-9
O=[N+]([O-])/C(N=Nc1ccccc1)=N\Nc1ccccc1,.,.,.,.,-51,4152,12
Cn1c(=O)n(C)c2cc(S(=O)(=O)Nc3ccccc3)ccc21,3.5,5,9,-2,-34,2129,2
COc1ccccc1N1CC(C(=O)Nc2ccc3c(c2)OCO3)CC1=O (stereo not drawn),1.8,4,8,-1,-29,4100,-5
O=C(OCCN1CCCCC1)c1cccc(F)c1,-5.1,-3,-10,8,-10,3817,6
CCSc1ncnc2c1oc1ccccc12,13,1,1,3,-7,16868*,8
CC(C=NNC(=O)c1ccncc1)=Cc1ccc(C(C)C)cc1,1.3,10,-2,4,.,.,.
COc1cc(OC)cc(C(=O)Nc2ccc3c(c2)COC3=O)c1,5.9,-6,7,9,-33,6413,-4
COc1ccc(OC(=O)CCN2C(=O)C3C4C=CC(C4)C3C2=O)cc1 (stereo not drawn),-1.0,17,-3,8,-7,2592,-2
Fc1ccccc1C=NNc1ccc(Cl)nn1,3.1,-5,2,-3,.,.,.
CC(C)CC(=O)NC1(C(F)(F)F)C(=O)Nc2c1c(=O)n(C)c(=O)n2C (stereo not drawn),1.8,11,.,.,-25,2868,.
COC(=O)c1sc(NC(=O)c2ccco2)c(C#N)c1C,24,23,3,1,-23,4292,-1
c1ccc(Nc2scc(-c3ccccc3)[n+]2Cc2ccco2)cc1,-6.5,22,3,-6,-42,4356,7
NC(=O)C1CCN(Cc2nc3c(Br)cc(Br)cc3c(=O)[nH]2)CC1,-1.6,1,0,0,-15,4501,-7
COc1ccc(C2C(=O)N(C3CCCCC3)CC(=O)N2CC2COc3ccccc3O2)cc1 (stereo not drawn),-6.4,7,0,1,-13,21276*,-3
Fc1cccc2sc(Nc3nc4c(F)cccc4s3)nc12,.,.,.,.,-29,2462,9
Cc1c(C(=O)NCC2CCCO2)oc2ccc(S(=O)(=O)N3CCCCC3)cc12 (stereo not drawn),-1.1,9,7,2,5,5427,9
COc1ccc(NC(=O)C2CCCN2C(=O)NCc2ccccc2)cc1 (stereo not drawn),4.5,5,15,4,0,2041,2
Cc1nc(C)c(C(=O)C2=C(O)C(=O)N(CCN(C)C)C2c2cccs2)s1 (stereo not drawn),4.2,-2,3,5,-15,3031,2
NC(=O)c1ccccc1N/C=C/C(=O)c1cccs1,.,.,.,.,-18,3160,19
COc1cc(F)ccc1S(=O)(=O)N1CCN(Cc2ccccc2)CC1,1.0,10,11,3,-75,3393,13
CCOc1cc(S(=O)(=O)N(CC)CC)ccc1F,7.0,10,8,1,-1,7878,-1
O=C1CCCc2nc(N3CCN(C(=O)c4ccco4)CC3)ncc21,-0.2,-2,-6,8,-49,6008,3
CCCC1S/C(=N/N=C/c2ccc(OC)cc2)N(Cc2ccccc2)C1=O (stereo not drawn),.,.,.,.,-21,4295,-3
CCO[C@@H]1OC(C(=O)NC2CC2)=C[C@H](c2ccc(Br)cc2)[C@H]1CCCO,.,.,.,.,-19,3827,14
Cc1ccc(C(=O)Cn2c(-c3ccccc3)noc2=O)cc1,0.8,6,0,4,-43,2543,-16

# Next part.
SMILES,Sa RN4220 lethal,ugtP null kill,Mtb hypoxia inh,Mtb hypoxia inh growth,PrP 5UTR inh,Autofluor counter,BJeLR viability
COc1cc2c3c(c1)c(C1=NC(=S)NC1=O)c(O)n3C(C)(C)C=C2C,0.6,-6,-3,5,-26,10168,8
COc1cc(C=NN2C(=O)C3C4c5ccccc5C(c5ccccc54)C3C2=O)ccc1O (stereo not drawn),7.6,5,1,14,.,.,.
Cc1cc(NC(=O)CN2CCN(S(=O)(=O)c3ccc4ccccc4c3)CC2)no1,0.4,-10,-2,1,-3,2471,-11
CCCc1nc(SCC(=O)N2CCc3ccccc32)c2c(C)c(C)sc2n1,3.6,2,8,7,.,.,-4
COC(=O)c1ccccc1NC(=O)C1CCN(C(=O)N2CCOc3ccccc32)CC1,15,4,-4,9,-44,5439,-11
CC(=O)c1cc2c(cc1NC(=O)CSc1nc3ccc(C)cc3[nH]1)OCO2,0.2,-4,-6,-12,-25,8843,-1
CCOC1OC(C(=O)NC2CC2)=CC(C2CC2)C1CCCO (stereo not drawn),3.3&-0.3,-2&-14,4&1,-7&2,.,.,.
O=C(CN(C(=O)CCC(=O)Nc1nccs1)c1ccc2c(c1)OCO2)NCc1ccccc1,-1.3,8,-5,-1,-8,3637,-3
COc1ccc(C(c2nnnn2CCc2ccccc2)N2CCN(C3CCCC3)CC2)cc1OC (stereo not drawn),1.7,9,.,.,-4,4711,9
Cc1ccc(N2CC(C(=O)Nc3cccc(C(=O)NC4CC4)c3)CC2=O)cc1 (stereo not drawn),4.2,6,-3,1,-17,3914,.
COc1ccc(CCNS(=O)(=O)c2cn(C)c(=O)n(C)c2=O)cc1,-12,0,8,6,-22,5394,-10
O=C1C(C=NCC2CCCO2)=C(O)c2ccccc21 (stereo not drawn),-4.7,-8,-7,0,-64,20972*,6

# Sorted by SMILES length (rising): three of the compounds above
SMILES,Sa RN4220 lethal,ugtP null kill,Mtb hypoxia inh,Mtb hypoxia inh growth,PrP 5UTR inh,Autofluor counter,BJeLR viability
O=C1C(C=NCC2CCCO2)=C(O)c2ccccc21 (stereo not drawn),-4.7,-8,-7,0,-64,20972*,6
Cc1ccc(N2CC(C(=O)Nc3cccc(C(=O)NC4CC4)c3)CC2=O)cc1 (stereo not drawn),4.2,6,-3,1,-17,3914,.
COc1ccc(C(c2nnnn2CCc2ccccc2)N2CCN(C3CCCC3)CC2)cc1OC (stereo not drawn),1.7,9,.,.,-4,4711,9

# New compounds follow.
SMILES,Sa RN4220 lethal,ugtP null kill,Mtb hypoxia inh,Mtb hypoxia inh growth,PrP 5UTR inh,Autofluor counter,BJeLR viability
Cc1cc(C)c2c(NC(=S)NC(=O)c3ccccc3)n[nH]c2n1,5.7,0,11,12,-29,4179,.
Cn1c(C(=O)NCCN2CCCCCC2)cc2c(=O)n(C)c3ccccc3c21,1.3,11,.,.,-57,6317,-14
CC1(C)c2[nH]c3ccccc3c2CC2C(=O)N(c3ccc(F)cc3F)C(=O)N21 (stereo not drawn),2.2,1,2,8,.,.,.
O=C(O)c1cnn(-c2nc(-c3ccc(Cl)cc3)cs2)c1C(F)(F)F,-0.3,14,10,2,-43,3987,0
CCCC12CN3CC(C)(CN(C1)C3c1ccc(OC(C)C)cc1)C2=O (stereo not drawn),-0.5,1,-6,-11,-18,.,0
Cn1c(=O)c2c(nc(SCc3ccccc3)n2Cc2ccc(Cl)cc2)n(C)c1=O,2.4,13,.,.,-10,3126,7
Cc1ccsc1/C=N/NC(=S)NCCc1ccccc1,.,.,.,.,-15,4293,-3
C/C(C=NNC(=O)Cn1c(C)nc2ccccc21)=C\c1ccccc1,2.9,-2,-77,-11,.,.,.
CNS(=O)(=O)c1cccc(C(=O)NCC2CCCCC2)c1,3.0,7,1,13,-2,3950,-10
Oc1ccc(N=Nc2cccc(C(F)(F)F)c2)cc1C=Nc1ccc(N2CCOCC2)cc1,.,.,.,.,-1,1652,-8
CCOc1cc(/C=C2/NC(=O)N(CC(=O)OC)C2=O)ccc1O,4.6,9,11,-2,-12,4717,0
Clc1ccc(C(c2nnnn2CCc2ccccc2)N2CCSCC2)cc1 (stereo not drawn),-3.6,-10,-3,1,-13,3865,-4
CC(=O)N(C(C)=O)c1ncn(C)c1S(=O)(=O)Nc1ccccc1,4.7,0,12,5,-16,3814,.
COc1ccc2c(c1)CCc1cnc(N)nc1-2,2.6,1,-2,-1,-27,4845,-4
O=C(Nc1nc2ccccc2s1)c1ccc2c(c1)OCO2,2.0,-21,-10,13,7,2480,11
CC1CCN(C(=O)CN(c2ccc3c(c2)OCO3)S(C)(=O)=O)CC1,5.5,8,-2,11,-18,9735,-5
COc1ccc(N=C2SCCCN2C)cc1,1.6,3,4,7,-15,4547,2

# Hits appear at their usual frequency; overall some 4% were active at least once.
